# Mtb growth = M. tuberculosis H37Rv growth inhibitors, H37Rv strain (AID 1626). inhibition, % at 10 µM, or IC50 in µM where a hit was titrated. M. tuberculosis H37Rv growth inhibition; higher % means a stronger effect. actives 0.95% (n = 220,000);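 active = confirmed in a dose series; inconclusive = inhibition above 80% but not taken into the dose series; inactive = below 80% or under 30% at every dose of the series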;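 also: bacteria incubated seven days before Alamar blue readout; 0% = bacteria only wells and 100% = bacteria with antibiotic wells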
# YopH inh = blocks Yersinia enterocolitica YopH tyrosine phosphatase; inhibition, %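 (about 10 µM by stock and volumes)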; fluorescence Ex485/Em525; AID 898; actives 0.16% (n = 140,000);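 active = inhibition of 50% or more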;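 also: controls were vehicle for no effect and minimum signal wells for full effect; inactives centre near -20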
# Mtb bLac sens = beta-lactam sensitization of Mtb H37Rv; actives 0.27% (n = 330,000); AID 434955; M. tuberculosis H37Rv growth with meropenem, percent inhibition; hits of this screen are not shown here; inhibition, % at 25 µM;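 active = about 74% or more and at least 40 points above the plate without the antibiotic, then above 30% in a dose series; inconclusive = first-round hits that could not be retested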;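 also: growth measured after seven days incubation then overnight dye step; 0% = bacteria only wells and 100% = bacteria with antibiotic; twin plates without the antibiotic show which effects depend on it; some results filed as inactive read as strong as hits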
# RecA intein inh = Mtb RecA intein splicing inhibition; AID 2221; actives 0.75% (n = 290,000); inhibition, %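 (about 9 µM by stock and volumes)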; cell-free RecA intein splicing, fluorescence; in the data active = inhibition above about 30%; inconclusive = no clear call, values can overlap the other calls;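 also: 0% = vehicle wells and 100% = reference inhibitor control wells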
# Target sequence (P9WHJ3 whole entry, looked up): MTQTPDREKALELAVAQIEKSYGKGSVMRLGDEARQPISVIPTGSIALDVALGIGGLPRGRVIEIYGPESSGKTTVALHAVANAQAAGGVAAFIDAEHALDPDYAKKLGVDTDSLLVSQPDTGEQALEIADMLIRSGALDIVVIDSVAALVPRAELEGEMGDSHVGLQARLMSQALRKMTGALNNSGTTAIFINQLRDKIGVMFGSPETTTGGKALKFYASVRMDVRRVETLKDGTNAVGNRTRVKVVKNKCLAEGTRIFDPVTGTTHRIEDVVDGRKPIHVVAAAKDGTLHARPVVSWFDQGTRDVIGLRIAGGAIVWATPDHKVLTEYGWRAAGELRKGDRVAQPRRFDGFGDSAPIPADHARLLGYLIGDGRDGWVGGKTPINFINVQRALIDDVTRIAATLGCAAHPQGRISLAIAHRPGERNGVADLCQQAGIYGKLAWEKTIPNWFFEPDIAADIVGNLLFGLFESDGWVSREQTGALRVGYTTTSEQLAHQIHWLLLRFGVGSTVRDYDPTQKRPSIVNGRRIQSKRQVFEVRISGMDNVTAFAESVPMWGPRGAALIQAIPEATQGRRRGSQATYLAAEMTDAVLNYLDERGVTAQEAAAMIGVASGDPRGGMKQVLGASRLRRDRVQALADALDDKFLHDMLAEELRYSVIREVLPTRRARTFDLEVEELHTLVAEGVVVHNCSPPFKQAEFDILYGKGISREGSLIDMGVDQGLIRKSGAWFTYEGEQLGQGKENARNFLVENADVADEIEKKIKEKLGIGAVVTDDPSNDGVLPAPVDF
# Arbovirus anti = antivirals against arbovirus infection; arbovirus infection cell-based antiviral screen; inhibition, % at 10 µM; actives 0.37% (n = 200,000); AID 1251;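 active = inhibition from about 30%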;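 also: bluetongue infection of BSR cells; cell survival read as ATP light after 72 h; 0% = infected wells without compound and 100% = uninfected wells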
# Arbovirus anti repeat = recorded beside Arbovirus anti, whose call it bears; inhibition, %; measured here: 10K subset replicate screen; many hits read low in the repeat;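 first of two repeat runs on a subset; 0% = infected and 100% = uninfected wells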
# * = called active by the depositor; ? = inconclusive; . = not tested or not shown. An excerpt; the hit share may differ from the screen's.
SMILES,Mtb growth,YopH inh,Mtb bLac sens,RecA intein inh,Arbovirus anti,others
CCCS(=O)(=O)N1CCC(C(=O)NCc2ccccc2Cl)CC1,0.7%,-21.9,-2.8,.,-3.4,
COc1ccc(OC)c(NC(=O)c2ccc(CSc3nnc(C)s3)cc2)c1,11.6%,.,-1.4,1.1,14.4,
COc1ccc(/C=C/C(=O)NC(=S)NCC2CCCO2)cc1 (stereo not drawn),-0.8%,.,4.7,-3.6,-1.6,
Cc1cc(C)cc(Nc2nc3ccccc3c(=O)[nH]2)c1,15.1%,.,3.2,-1.3,13.1,
Cn1cccc1Cc1nnc(SCC(=O)NCC2CCCO2)n1-c1ccc(F)cc1 (stereo not drawn),-0.9%,-39.0,-0.4,-1.1,4.3,Arbovirus anti repeat=-0.7
C/C(=N\NC(=O)CSCc1ccc(Cl)cc1)c1ccc(NC(=O)c2ccccc2)cc1,8.0%,-18.0,-10.0,-3.9,2.1,
COCc1nc2oc3ccc(F)cc3c(=O)c2cc1C(=O)OC,.,.,4.5,0.0,.,
Cc1ccc(NC(=O)CSc2n[nH]c(C)c2[N+](=O)[O-])cc1C,?,-19.3,13.8,-0.9,-8.7,
CCOC(=O)C1CCCN(c2c(N3CCN(C4CCCCC4)CC3)c(=O)c2=O)C1 (stereo not drawn),-7.6%,-19.7,-2.6,0.6,10.4,
COc1ccc(N2CCN(c3cc(=O)n(Cc4ccc(F)cc4)c(=O)[nH]3)CC2)cc1,15.6%,-27.5,0.8,.,-4.4,Arbovirus anti repeat=-20.1
CCN(CC(=O)Nc1ccc(NC(C)=O)cc1)C(=O)c1cc(-c2ccccc2)nn1-c1ccccc1,.,.,-0.4,1.3,.,
O=C(O)c1cc(S(=O)(=O)Nc2ccc(N3CCCCC3)cc2)ccc1Cl,-10.0%,.,3.8,-2.8,-1.1,
COc1cc(CN=Cc2c(O)n(C(C)(C)C)c(=O)[nH]c2=O)cc(OC)c1,-1.2%,.,4.0,-0.9,.,
O=c1cc(CN2CCN(c3ccccc3)CC2)nc2scc(-c3ccccc3)n12,-3.0%,.,-9.6,3.6,-11.2,
N/C(=N\OC(=O)COc1ccc([N+](=O)[O-])cc1)c1ccc(Br)cc1,-1.9%,.,.,2.3,4.1,
Cc1ccc(C)c(N2CC(=O)N(c3cc(C)ccc3C)CC2=O)c1,-6.1%,4.8,-1.9,-1.4,4.0,
COn1c(-c2ccc(Cl)cc2)nc2ccc(Cl)cc21,-0.7%,-20.9,13.3,2.8,-0.1,
O=C(CCCOc1ccccc1)N1CCN(S(=O)(=O)c2ccc(Cl)cc2)CC1,.,.,-9.3,2.1,.,
CC(C)(C)c1ccc(C(=O)Nc2ccc(S(=O)(=O)Nc3cnc4ccccc4n3)cc2)cc1,.,.,56.8,-0.3,.,
c1ccc(-c2c(-c3ccccc3)n(Cc3ccco3)c3ncnc(NCCCn4ccnc4)c23)cc1,25.2%,9.2,99.8,-3.4,-45.9,
COCCCNC(=O)CSc1nc2ccccc2c(=O)n1CCCC(=O)NCC1CCCO1 (stereo not drawn),-4.4%,-33.9,11.8,-2.6,-1.9,
COC(=O)c1cc2occc2n1Cc1c(F)cccc1Cl,3.2%,4.0,.,.,0.7,
CC(C)(C)C(=O)CSc1ncnc2c1cnn2Cc1ccccc1,.,.,0.0,2.1,.,
Fc1ccc(NC(=S)NCc2ccccn2)cc1,-8.6%,-39.6,2.2,0.4,4.3,
O=C(c1ccc(C(F)(F)F)cc1)C1CCCN(C(=O)CN2CCCC2=O)C1 (stereo not drawn),-3.5%,.,-2.6,1.1,1.5,
O=C(CCn1nnc2ccccc21)Nc1nnc(Cc2ccccc2)s1,.,-40.3,-0.6,-3.1,20.8,
COC(=O)Cn1cc(C=C2C(=O)NC(=O)NC2=O)c2ccccc21,.,.,-5.4,-3.6,.,
Cc1ccc(N=C2C(=S)N(c3ccc(C)cc3)C(=N)N2/N=C/c2ccc(Cl)cc2)cc1,2.8%,-2.1,11.3,8.3,7.4,
COc1cccc(C(=O)NNC(=O)c2sccc2-n2cccc2)c1,3.3%,.,8.3,-0.7,-4.7,
CN(CCCC1CCCC1)C(=O)c1cc(COc2c(F)cccc2F)on1,.,.,2.3,13.3,.,
O=C(Cc1ccc([N+](=O)[O-])cc1)NCc1ccccc1Cl,4.1%,-25.8,3.5,-0.1,-5.2,
CCOC(=O)C1(CC)NC(c2ccco2)C2C(=O)N(C)C(=O)C21 (stereo not drawn),-9.0%,-27.5,-1.7,-5.8,2.2,
CCc1nnc(N/N=C/c2c(F)cccc2Cl)n1N,.,.,-0.2,4.0,.,
Cc1ccnc(N2C(=O)c3ccccc3C2O)c1 (stereo not drawn),-1.4%,-46.6,-4.2,0.7,-9.8,
Cc1c(CN(C)C(=O)c2nn(C)cc2[N+](=O)[O-])cnn1C,-4.1%,-32.8,-2.7,-2.8,4.3,
CCN(CC)S(=O)(=O)c1ccc(N2CCCC2)c(C(=O)OCC(=O)/C(C#N)=C(\C)N)c1,-8.7%,12.0,-5.0,1.0,-6.8,
O=C(/C=C/c1ccccc1)NCCc1nc2ccccc2[nH]1,-7.0%,.,-8.0,0.0,.,
COc1ccc(CCN2CNc3c(c(=O)n(C)c(=O)n3C)C2)cc1OC,-5.8%,-9.2,-3.5,-0.6,0.3,
CCCCn1c(N)c(N(CC)C(=O)c2cc3c(s2)CCCCC3)c(=O)[nH]c1=O,.,.,-7.5,-3.4,.,
O=C(C[n+]1cccc(Br)c1)c1cccs1,.,.,9.5,-1.4,.,
COC(=O)c1c(-c2c(Cl)cccc2Cl)noc1C(=O)NN,0.7%,.,-2.6,.,.,
Cc1cc(C)c2c(-n3cccc3)nn(C)c2n1,0.2%,-26.6,-6.7,-6.5,6.7,
CCN(CC(=O)NCc1cccs1)S(=O)(=O)c1ccc(C(C)C)cc1,5.8%,-93.7,-6.3,2.0,7.1,
COc1cc(O)c(C(CC(=O)N2CCCCC2)c2ccc3c(c2)OCO3)c(OC)c1 (stereo not drawn),-4.3%,.,-2.5,-1.0,.,
COc1ccc(-c2nnn(-c3cc(Cl)cc(Cl)c3)c2N)cc1,-9.2%,.,-6.0,1.2,.,
Cc1cc(C)cc(NC(=O)CCc2c(C)nn(-c3ccc(N4CCCCC4)nn3)c2C)c1,.,.,8.1,-0.2,.,
CCOc1ccc(Nc2cc(=O)oc3ccccc23)cc1,3.4%,-9.0,-8.1,-0.3,-9.4,
Nc1cc(N)nc(SCC(=O)N2CCN(S(=O)(=O)c3ccccc3)CC2)n1,-4.3%,.,-8.7,-1.1,.,

# Brought forward from above: 2 compounds; new compounds follow.
SMILES,Mtb growth,YopH inh,Mtb bLac sens,RecA intein inh,Arbovirus anti,others
CCOc1ccc(Nc2cc(=O)oc3ccccc23)cc1,3.4%,-9.0,-8.1,-0.3,-9.4,
Nc1cc(N)nc(SCC(=O)N2CCN(S(=O)(=O)c3ccccc3)CC2)n1,-4.3%,.,-8.7,-1.1,.,
CCOC(=O)C1CCCN(C(=O)c2cc3c(C)nc4ccccc4c3o2)C1 (stereo not drawn),-1.8%,12.7,?,-0.6,-1.6,
CCc1cccc(C)c1NC(=O)CC(C)(C)CC(=O)O,-6.4%,.,-3.4,3.8,.,
CCOc1ccc(N(CC)C(=O)CCS(=O)(=O)c2cccc3nonc23)cc1,.,.,5.5,1.8,.,
CC(C(=O)Nc1ccccc1)C(=O)Nc1ccccc1,.,.,5.1,-0.1,.,
COc1ccc(NC(=O)COC(=O)CNC(=O)c2cc(OC)c(OC)c(OC)c2)cc1,1.3%,-27.5,0.9,-7.4,-5.7,
CN(CC(=O)Nc1ccccc1C(F)(F)F)C(=O)CCc1nc2sc3c(c2c(=O)[nH]1)CCCC3,.,.,-0.9,-1.7,.,
CCC(C(=O)NC1CCCCC1)N(CC1CCCO1)C(=O)CNS(=O)(=O)c1ccc(OC)cc1 (stereo not drawn),1.6%,-17.2,.,-0.3,2.1,
COc1ccc(CCC(=O)Nc2cc(Cl)ccc2OC)cc1,-4.9%,11.0,31.7,.,-17.0,
CNC(=O)c1ccc(NC(=O)CC23CC4CC(CC(C4)C2)C3)cc1,.,.,4.8,-0.9,.,
CCOC(=O)c1ccc(N=c2sc(C(=O)OC)cc(=O)n2Cc2ccc3c(c2)OCO3)cc1,8.9%,-35.3,-3.8,-2.8,-7.7,
CCOc1ccc(NC(=O)COC(=O)c2cc([N+](=O)[O-])ccc2N2CCOCC2)cc1,.,.,-4.5,1.3,.,
COC(=O)c1sccc1NC(=S)N1CC(C)CC(C)C1 (stereo not drawn),-5.9%,-2.0,-6.2,12.5,7.5,

# Structures shown so far containing a nitro group on carbon, in the order listed:
SMILES,Mtb growth,YopH inh,Mtb bLac sens,RecA intein inh,Arbovirus anti,others
Cc1ccc(NC(=O)CSc2n[nH]c(C)c2[N+](=O)[O-])cc1C,?,-19.3,13.8,-0.9,-8.7,
N/C(=N\OC(=O)COc1ccc([N+](=O)[O-])cc1)c1ccc(Br)cc1,-1.9%,.,.,2.3,4.1,
O=C(Cc1ccc([N+](=O)[O-])cc1)NCc1ccccc1Cl,4.1%,-25.8,3.5,-0.1,-5.2,
Cc1c(CN(C)C(=O)c2nn(C)cc2[N+](=O)[O-])cnn1C,-4.1%,-32.8,-2.7,-2.8,4.3,
CCOc1ccc(NC(=O)COC(=O)c2cc([N+](=O)[O-])ccc2N2CCOCC2)cc1,.,.,-4.5,1.3,.,

# (continued)
SMILES,Mtb growth,YopH inh,Mtb bLac sens,RecA intein inh,Arbovirus anti,others
CNC(=O)NC(=O)COC(=O)CCCOc1ccc(OC)cc1,-16.7%,-6.5,-2.1,1.3,0.0,
Cc1cccc(NC(=O)Cn2cccc2)c1,-11.4%,-45.7,-9.5,-1.6,-3.5,
S=C(Nc1ccccc1)c1nc2ccccc2s1,20.3%,-17.6,13.5,2.8,-5.8,
Cc1cc(C)c2c(=O)[nH]c(SCC(=O)N3CCCCC3)nc2n1,-8.2%,-5.0,4.8,0.9,4.6,Arbovirus anti repeat=-2.7
C#CCNC(=O)C1=C[C@H](c2csc3ccccc23)C[C@H](OCCCCO)O1,-8.7%,.,6.2,0.4,1.0,
O=C(CNC1CCCCCC1)Nc1ccccc1N1CCCCC1,-4.0%,-107.3,10.1,4.6,-0.7,
Cc1nc(C)c(C(=O)Nc2cccc(F)c2)s1,.,.,6.7,-0.6,.,
Cc1ccc(CNS(=O)(=O)c2cn(C)cn2)cc1,-4.6%,-16.8,4.9,1.1,4.3,
O=C(NC1C(=O)NNC1c1ccccc1)c1ccccc1 (stereo not drawn),2.5%,-8.0,0.0,69.4*,-5.6,
Cc1ccc([N+](=O)[O-])c2c1C(N1CC(C)OC(C)C1)C(C)(C)O2 (stereo not drawn),2.0%,.,-6.3,1.7,-1.7,
CCOc1ccc(S(=O)(=O)Nc2nc3ccccc3nc2-n2ccc(=NC(=O)c3cccs3)cc2)cc1,-4.7%,18.3,1.1,-129.1,-0.2,
CSCCC(NC(=O)c1ccc(Cl)cc1Cl)C(=O)OC(C)C(=O)NCc1ccco1 (stereo not drawn),.,.,-5.1,-1.0,.,
COCCCn1c(SCC(=O)N(C)C)nnc1-c1ccccc1,-12.6%,-41.6,-2.5,0.5,9.4,
O=C(Nc1ccccc1N1CCOCC1)c1cccc(F)c1,.,.,-3.8,5.6,12.0,
COc1ccc(C(=O)COC(=O)C(CCSC)NS(=O)(=O)c2ccc(Cl)cc2)cc1 (stereo not drawn),0.7%,-26.5,4.3,3.4,1.8,
CC(C)N(C(=O)NC(=O)Nc1ccc(S(=O)(=O)N2CCCC2)cc1)S(C)(=O)=O,-7.4%,.,4.1,-0.5,4.3,
CCN1C(=O)/C(=C/c2cccs2)N(C)C1=S,-4.1%,-10.5,-1.5,5.2,-4.3,
CC(=O)Oc1ccc(/C=N/NC(=O)CCSc2ccccc2)cc1,0.5%,.,16.3,14.0,-19.3,
O=C(COc1ccc(-c2nnco2)cc1)Nc1c(F)cccc1F,.,.,6.2,-2.2,.,
COc1ccc(C(=O)Nc2ccncc2)cc1OC,-8.2%,-46.5,-4.4,-2.3,3.3,
Cc1cc(C)n(-c2nc3ccccc3nc2N2CCN(C(=O)c3ccccc3)CC2)n1,3.1%,-23.1,1.8,0.4,2.0,
CNS(=O)(=O)c1cccc(C(=O)OC2CCCCC2=O)c1 (stereo not drawn),2.5%,-25.1,9.1,.,-1.5,
COc1cc(-c2noc(C3CCCN(C(=O)c4c(F)cccc4F)C3)n2)cc(OC)c1OC (stereo not drawn),.,.,-5.8,0.3,.,
Cc1ccnc(N/N=C/c2ccccc2)n1,-5.6%,-28.2,5.3,-5.1,-6.8,
O=C(CN1CCN(Cc2ccccc2)CC1)NCc1ccc(Cl)cc1,.,.,-3.0,-0.7,.,

# High-throughput results from PubChem BioAssay.
